Assay outcomes deposited in PubChem by several laboratories.
RGS16-Gao: modulates binding between human RGS16 and Galphao | binding response (% of control), % at 10 µM | O15492+P09471 | bead-based flow cytometry RGS16-Galphao binding, fluorescence; actives lie on both sides | hit rate 0.38% among 220,000;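 active = below 25% or above 175%, edge rows of some plates excepted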;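 note: Galphao activated by GDP with aluminum fluoride before binding; 100% = wells without compound and 0% = beads without RGS; some results beyond the cut were filed as inactive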
GALR2 agonist: agonists of human galanin receptor 2 (GALR2) | O43603 | activation, %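 (tested at 5 µM)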 | hit rate 0.48% among 140,000 | GALR2-expressing cells, agonist activation read-out | AID 803;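 active = above mean plus 3 SD of all compounds, about 5% in these data, not always enough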;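 note: 0% = vehicle buffer wells and 100% = reference agonist at full effect; tested in CHO reporter cells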
PKD1 kinase inh: inhibitors of human PKD1 kinase; Q15139; PKD1 kinase fluorescence polarization assay; inhibition, %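 (about 10 µM by stock and volumes)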; hit rate 0.056% among 200,000; AID 797;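 active = inhibition of 50% or more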;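 note: controls were vehicle for no effect and a reference inhibitor for full effect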
Target sequence (Q15139 whole entry, looked up): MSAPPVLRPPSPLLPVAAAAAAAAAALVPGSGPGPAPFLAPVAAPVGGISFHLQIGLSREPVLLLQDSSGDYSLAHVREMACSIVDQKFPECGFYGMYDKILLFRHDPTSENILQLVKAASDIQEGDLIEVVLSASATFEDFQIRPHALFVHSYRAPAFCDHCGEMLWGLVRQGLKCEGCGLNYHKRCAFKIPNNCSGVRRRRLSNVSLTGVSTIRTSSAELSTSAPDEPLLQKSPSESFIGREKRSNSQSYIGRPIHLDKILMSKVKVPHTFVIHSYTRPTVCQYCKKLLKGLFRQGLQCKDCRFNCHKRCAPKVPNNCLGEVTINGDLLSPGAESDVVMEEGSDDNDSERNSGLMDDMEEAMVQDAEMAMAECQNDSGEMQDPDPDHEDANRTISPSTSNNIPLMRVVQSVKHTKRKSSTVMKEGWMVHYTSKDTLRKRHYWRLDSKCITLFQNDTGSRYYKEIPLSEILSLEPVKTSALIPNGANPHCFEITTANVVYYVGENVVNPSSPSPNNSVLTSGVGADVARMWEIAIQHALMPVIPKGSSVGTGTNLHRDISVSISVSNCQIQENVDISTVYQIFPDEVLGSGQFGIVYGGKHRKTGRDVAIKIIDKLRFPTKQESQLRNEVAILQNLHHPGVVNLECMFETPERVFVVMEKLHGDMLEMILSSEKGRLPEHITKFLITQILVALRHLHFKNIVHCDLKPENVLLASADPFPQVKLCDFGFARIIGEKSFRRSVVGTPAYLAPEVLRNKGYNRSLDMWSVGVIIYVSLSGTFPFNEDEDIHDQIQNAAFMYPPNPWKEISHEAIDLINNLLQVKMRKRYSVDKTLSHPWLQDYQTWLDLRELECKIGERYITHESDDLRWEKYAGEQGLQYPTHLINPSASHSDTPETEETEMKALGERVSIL
HSV replic up: HSV replication enhancement; HSV replication augmentation in cells, fold increase; hit rate 0.005% among 220,000; maximum fold increase; AID 1956;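 active = peak rise of 1.5-fold or more in the series; inconclusive = self-fluorescent or not available for retest; tested in PC3 cells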;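 note: first round at 10 µM; read as green reporter fluorescence; hits show the peak of a series up to 25 µM; 1 = signal of infected wells without compound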
INS promoter inh: TRM-6 insulin promoter activity inhibition | hit rate 0.9% among 130,000 | inhibition, % at 2 µM | TRM-6 cells (human fetal islet line), insulin promoter-eGFP reporter, imaging; reporter expression induced with tamoxifen | AID 1273;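 active = inhibition above the mean plus 3 SD, with well images judged a real hit on visual review, cut at about 60% in these data, passing the limit was not always enough; inconclusive = inhibition over the cutoff but images rejected on review; inactive = inhibition not above the cutoff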
INS promoter inh cell count: recorded beside INS promoter inh, whose call it bears; normalized cell count, %; measured here: cell count, toxicity; reference of the scale not given here;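 cells exposed to compound for 48 h; stained nuclei by imaging scaled within each plate; lower means fewer cells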
HSV replic up primary fold: further read-out of HSV replic up, marked with its call; fold increase; compound at 10 µM; measured here: primary screen fold increase 10 uM; tested in PC3 cells;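 GFP signal in the first replicate; 1 = infected wells without compound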
* = called active by the depositor; i = inactive; ? = inconclusive; . = no result given.

SMILES | RGS16-Gao | GALR2 agonist | PKD1 kinase inh | HSV replic up | HSV replic up primary fold | INS promoter inh | INS promoter inh cell count
Cc1nc(NCc2ccc3c(c2)OCO3)c2oc3ccccc3c2n1 | 101 | -2.5 | -4 | i | 0.99 | 57 | 115
COC(=O)c1ccccc1NC(=O)COc1ccc(S(=O)(=O)NC(C)C)cc1 | 97 | . | 9 | i | 0.95 | . | .
CN(Cc1ccccc1NS(=O)(=O)c1ccc2ccccc2c1)C1CCCCC1 | 108 | . | -4 | i | 0.9 | -73 | 108
CC(=O)Nc1ccc(N/C=C/C(=O)C(C)(C)C)cc1 | 98 | -3.3 | -8 | i | 1.1 | -18 | 137
Cc1ccccc1OS(=O)(=O)c1cn(C)c(=O)n(C)c1=O | 99 | . | -2 | i | 0.92 | . | .
Cc1cc(C)nc(NC(=O)CSc2nn(C)c(=S)s2)n1 | 103 | -3.0 | 12 | i | 0.83 | -73 | 122
Cc1ccc(NC(=O)CCNS(=O)(=O)c2ccc3c(c2)oc(=O)n3C)cc1 | 107 | -1.2 | -1 | i | 1 | . | .
CCN(CC)C(=S)Nc1ccc([N+](=O)[O-])cc1 | 221 | -0.3 | -8 | i | 0.97 | -26 | 67
Cc1ccc(NC(=O)c2onc(C)c2Cl)cc1 | 108 | -2.9 | 15 | i | 0.81 | . | .
O=C(CSc1nc2cc(Cl)ccc2s1)c1cc2ccccc2o1 | 99 | -1.1 | -2 | . | . | -13 | 149
C=CCn1nnnc1-c1cc(Cl)cc(Cl)c1 | 106 | . | -3 | i | 1.1 | 54 | 112
Cn1c(SCCCC(=O)c2ccccc2)nnc1-c1ccncc1 | 111 | -1.4 | -7 | i | 0.97 | -50 | 148
CCCc1cc(C(N)=O)c(NC(=O)c2ccoc2C)s1 | 89 | 1.5 | 2 | i | 0.88 | 76* | 96*
COc1cccc(-c2nnc3sc(-c4ccccn4)nn23)c1 | 103 | -2.4 | -4 | i | 0.87 | . | .
O=C(NC(=S)Nc1ccc(S(=O)(=O)Nc2ncccn2)cc1)c1ccc(Br)cc1 | 120 | . | -6 | i | 0.95 | . | .
COc1cc(NC(=O)NCCN2CCN(c3ccc(Cl)cc3)CC2)ccc1C | 107 | -0.5 | -7 | i | 0.69 | 53 | 84
CCCCn1c(NCCO)nc2ccccc21 | 99 | -0.9 | 9 | i | 1 | . | .
COc1cc(-c2cc(N)n(S(=O)(=O)c3ccc(F)cc3)n2)cc(OC)c1OC | 102 | -0.6 | 10 | i | 0.91 | . | .
O=C1Oc2ccccc2C(=O)/C1=C/c1ccccc1O | 96 | . | 3 | i | 1.1 | . | .
COC(=O)CCC(NC(=O)c1cc(C)oc1C)C(=O)OC (centres undefined) | 103 | -1.6 | 1 | i | 0.93 | -281 | 50
Cc1c(NC(=O)Nc2cccc(Cl)c2)c(=O)n(-c2ccccc2)n1C | 103 | -1.4 | -13 | i | 0.88 | 12 | 98
CN(Cc1cnn(C)c1)C(=O)C1CCCCC1C(=O)O (centres undefined) | 181 | -1.0 | -4 | i | 0.67 | -272 | 51
Cc1ccc(C(=O)c2oc3ccccc3c2N)cc1 | 82 | 2.2 | -3 | i | 0.8 | 0 | 113
COc1ccc(S(=O)(=O)N2CCOCC2)cc1Cl | 107 | -0.5 | -2 | i | 0.83 | -407 | 60
CCN1CCN(C(=O)CCCCCn2c(=O)[nH]c3cc(C(=O)OC)ccc3c2=O)CC1 | 104 | -0.4 | -8 | i | 1 | . | .
CC1=NN(c2ccccc2)C(=O)/C1=C\c1ccc(Oc2ccc([N+](=O)[O-])cc2[N+](=O)[O-])cc1 | 109 | -2.2 | 10 | i | 0.72 | 50 | 92
CCc1nnc(NC(=O)CCC(=O)N2CCN(C3CCCCC3)CC2)s1 | 104 | -1.1 | -3 | i | 0.89 | . | .
NC(=O)CC(NC(=O)Cc1ccc(Cl)cc1)c1ccc(NC2CCCC2)c([N+](=O)[O-])c1 (centres undefined) | 103 | . | . | i | 0.96 | . | .
CC12COC3(C(=O)Nc4ccc(Cl)cc4)CC1CCC32C (centres undefined) | 104 | -1.8 | -6 | i | 1 | -33 | 89
Cc1nc2n(n1)C(O)c1cc([N+](=O)[O-])ccc1S2 (centres undefined) | 104 | . | 6 | i | 0.91 | -33 | 57
COc1ccc(N=Cc2c(O)n(-c3cccc(C)n3)c(=O)c3ccccc23)c(OC)c1 | 111 | . | . | ? | . | . | .
Cc1ccc(CNC(=O)C2=NNC(=O)CC2)cc1 | 111 | -1.3 | 1 | i | 0.91 | 50 | 100
CC1(C)CN(c2ccc(-c3ccnc4ncnn34)cc2)C1=O | 102 | . | -2 | i | 0.83 | -15 | 130
O=S(=O)(c1ccc(Cl)cc1)N1CCN(Cc2ccc(O)c3ncccc23)CC1 | 102 | . | -3 | i | 0.75 | -29 | 111
Cc1ccc(-c2nc3ccccc3[nH]2)cc1NC(=O)c1ccco1 | 103 | 1.5 | 12 | i | 0.99 | 14 | 81
Cn1ccc(C(=O)OCC(=O)c2ccccc2)n1 | 101 | -0.4 | -6 | i | 1.1 | . | .
O=C(NCCC1=CCCCC1)C1CCN(c2nc3ccccc3o2)CC1 | 103 | -3.4 | 2 | i | 0.8 | 0 | 106
CCOC(=O)CN1C=C(c2ccc3ccccc3n2)C(C[N+](=O)[O-])c2ccccc21 (centres undefined) | 106 | -0.1 | 28 | ? | . | -135 | 113
Cc1c(C)c(C)c(C(=O)C2CCN(c3ccc([N+](=O)[O-])cn3)CC2)c(C)c1C | 96 | . | . | i | 1 | . | .
COc1ccc(NC(=O)CSc2nc(N3CCCCC3)nc(N3CCCCC3)n2)cc1 | 104 | -2.3 | -10 | i | 0.83 | 0 | 90
COc1ccccc1NC(=O)Cn1ncc2c1-c1ccccc1OC2 | 91 | -0.7 | -3 | i | 0.84 | . | .
COc1ccc2c(c1)CC/C2=N\NC(=O)c1ccccc1 | 107 | -1.7 | -7 | i | 0.97 | -53 | 120
Cc1occc1C(=O)N/N=C/C=C\c1ccccc1[N+](=O)[O-] | 98 | . | -2 | i | 1.1 | -56 | 133
C/C(CC1CC2=C(CC1(C)C)C(C)(C)CCC2)=N\NC(N)=S (centres undefined) | 125 | -0.2 | 3 | i | 0.94 | -35 | 76
O=S(=O)(c1ccc(Br)s1)N1CCN(c2ccccc2)CC1 | . | -1.5 | -7 | i | 0.85 | i | 60
O=C(O)CCC(=O)NCc1cn(-c2ccccc2)nc1-c1cccc(Br)c1 | 103 | -1.1 | -7 | i | 1.1 | 15 | 107
COc1ccc(CCNC(=O)C(C(=O)c2ccc(F)cc2)n2ccccc2=O)cc1OC (centres undefined) | 46 | -2.1 | -3 | i | 0.97 | 43 | 45
CCOC(=O)c1cc(-c2ccncc2)nc2c1c(C)nn2-c1ccccn1 | 63 | -0.5 | -10 | i | 0.85 | 0 | 39

One compound at a time, from the list above.
NC(=O)CC(NC(=O)Cc1ccc(Cl)cc1)c1ccc(NC2CCCC2)c([N+](=O)[O-])c1 (centres undefined) is listed as RGS16-Gao = 103; GALR2 agonist = .; PKD1 kinase inh = .; HSV replic up = i; HSV replic up primary fold = 0.96; INS promoter inh = .; INS promoter inh cell count = .
Cc1cc(C)nc(NC(=O)CSc2nn(C)c(=S)s2)n1 is listed as RGS16-Gao = 103; GALR2 agonist = -3.0; PKD1 kinase inh = 12; HSV replic up = i; HSV replic up primary fold = 0.83; INS promoter inh = -73; INS promoter inh cell count = 122
Cc1ccc(NC(=O)CCNS(=O)(=O)c2ccc3c(c2)oc(=O)n3C)cc1 is listed as RGS16-Gao = 107; GALR2 agonist = -1.2; PKD1 kinase inh = -1; HSV replic up = i; HSV replic up primary fold = 1; INS promoter inh = .; INS promoter inh cell count = .

(further entries)
SMILES | RGS16-Gao | GALR2 agonist | PKD1 kinase inh | HSV replic up | HSV replic up primary fold | INS promoter inh | INS promoter inh cell count
Cc1cc(NC(=O)COC(=O)CCC(=O)c2ccc(F)cc2)no1 | 100 | -1.3 | -9 | i | 1.2 | -57 | 100
NC(=O)c1ncn([C@@H]2O[C@H](CO)[C@@H](O)[C@H]2O)n1 | 98 | -1.0 | -3 | i | 0.96 | 52 | 108
COc1ccccc1N1CCN(C(=O)COc2cc(C)ccc2C)CC1 | 132 | -1.8 | -7 | i | 0.98 | -11 | 42
CCCCCn1c(N2CCN(c3cccc(Cl)c3)CC2)nc2c1c(=O)[nH]c(=O)n2C | 90 | 0.6 | -9 | i | 0.87 | . | .
Brc1ccc(N=C(c2ccccc2)c2ccncc2)cc1 | 94 | -0.7 | -4 | i | 0.9 | -18 | 84
CC(C)(C)c1ccc(OCc2ccc(C(=O)NN)o2)cc1 | 102 | . | . | i | 0.92 | . | .
CCC(C)NC(=O)Cn1cc(S(=O)(=O)N2CCN(c3ccccc3F)CC2)c2ccccc2c1=O (centres undefined) | 62 | . | -4 | i | 1 | . | .
CCOC(=O)CSc1nc2sc3c(c2c(=O)[nH]1)CCCC3 | 103 | -1.6 | 2 | i | 0.9 | . | .
Cc1ccc(S(=O)(=O)C2(S(=O)(=O)c3ccc(C)cc3)CCCC2)cc1 | 95 | -3.4 | 8 | . | . | 19 | 71
CCCc1cc(C(=O)Nc2nccs2)cs1 | 104 | -2.5 | 3 | i | 1 | i | 21
CCOC(=O)c1cccc(NC(=O)Nc2cc(OC)ccc2OC)c1 | 101 | 0.1 | -4 | i | 0.96 | -148 | 106
COc1ccc2nc(NCCCNC(=O)c3cc(OC)c(OC)c(OC)c3)c(C#N)cc2c1 | 103 | 0.9 | 6 | i | 1 | . | .
CC(C)OCCCNC(=O)CNC(=O)c1ccc(Cl)c(Cl)c1 | 103 | . | -6 | i | 1 | . | .
O=C(NC1CCCCC1)C(c1ccc(Cl)cc1)N(C(=O)c1ccccn1)c1cccnc1 (centres undefined) | 110 | . | 4 | i | 0.91 | -120 | 132
Cc1sc2ncnc(SCC(=O)NC(=O)NCc3ccco3)c2c1C | 95 | -2.5 | -4 | i | 0.99 | -65 | 77
CCCC(=O)Nc1cc(C(=O)O)ccc1Sc1ccccc1 | 98 | . | 1 | i | 1.1 | . | .
C=CCOc1c(Cl)cc(CNCCC)cc1Cl | 105 | -1.3 | -11 | i | 0.87 | -246 | 96
CCOc1ccc(/C=C2\C(=O)c3ccccc3OC2c2ccccc2)cc1 (centres undefined) | 99 | -1.7 | 0 | i | 0.9 | 8 | 180
CCOC(=O)N1CCC(N(CCN(C)C)C(=S)Nc2cccc(Cl)c2)CC1 | 99 | . | 5 | i | 0.91 | 33 | 113
COc1ccc(-n2ccnc2SCC(=O)NO)cc1 | 100 | . | -9 | i | 0.93 | . | .
CCOc1cc(/C=C2/NC(=O)N(CC(=O)Nc3cccc(C)c3)C2=O)ccc1OC | 88 | 0.6 | 11 | ? | . | 32 | 101
COC(=O)C1=NN(c2ccc(C)cc2)C2(S1)SC(C(C)=O)=C(C)N2c1ccccc1 (centres undefined) | 99 | -1.4 | -4 | i | 1.1 | 0 | 107
Nc1c(C(=O)O)cnn1-c1ccc([N+](=O)[O-])cc1 | 103 | . | . | i | 0.99 | . | .
O=C(O)CC(=O)Nc1ccccc1 | 101 | -0.6 | -5 | i | 1 | 0 | 103
O=C(NCc1ccccc1)c1cc[n+](Cc2ccccc2)cc1 | 109 | . | -5 | i | 1 | . | .
C=C(C)Cn1c(-c2ccncc2)n[nH]c1=S | 120 | . | 5 | i | 0.97 | 0 | 98
O=C(Nc1ccc(N2CCCCC2)c(Cl)c1)c1ccc2c(c1)OCCO2 | 99 | 0.4 | -4 | i | 0.85 | -14 | 164
CC1CC(C)(C)NC(=S)N1CC(=O)N1CCN(Cc2ccc3c(c2)OCO3)CC1 (centres undefined) | 96 | . | 6 | i | 1.1 | . | .
CS(=O)(=O)NCc1ccc(C(=O)NCCOc2ccccc2)cc1 | 99 | -0.8 | -1 | i | 0.95 | . | .
CN(C)c1ccc(C=C(c2nnnn2-c2ccccc2)c2nnnn2-c2ccccc2)cc1 | 101 | -0.9 | 1 | i | 1.3 | -42 | 133
COC(=O)Nc1ccc(S(=O)(=O)N2CCC(C(=O)N3CCC(C)CC3)CC2)cc1 | 103 | . | 0 | i | 0.9 | 17 | 81
COC(=O)/C=c1\sc2n(c1=O)C(C)=CC(C)(C)N=2 | 154 | -1.6 | 4 | i | 0.94 | . | .
COC(=O)c1ccc(Cl)c(NC(=O)Cc2ccccc2[N+](=O)[O-])c1 | 100 | -1.4 | -3 | i | 1.1 | . | .
CCN1C(=O)CC(N2CCC(c3nc4ccccc4[nH]3)CC2)C1=O (centres undefined) | 99 | . | 2 | i | 0.94 | . | .
